From PubChem
Six1-Eya2 inh: blocks human Six1 binding to Eya2; activity change, % (concentration not given with the values); AlphaScreen GST-Six1/His-Eya2 binding, biochemical; stronger effect = lower value; control for the full effect not named in the record; actives 0.56% (n = 360,000); Q15475+O00167; in the data active = activity change below about -65%; inconclusive = about -30% to -65%; inactive = above about -30%; further: on the % scale 0 is the no-effect control and ±100 the full control effect
Target sequence (O00167 whole entry, looked up): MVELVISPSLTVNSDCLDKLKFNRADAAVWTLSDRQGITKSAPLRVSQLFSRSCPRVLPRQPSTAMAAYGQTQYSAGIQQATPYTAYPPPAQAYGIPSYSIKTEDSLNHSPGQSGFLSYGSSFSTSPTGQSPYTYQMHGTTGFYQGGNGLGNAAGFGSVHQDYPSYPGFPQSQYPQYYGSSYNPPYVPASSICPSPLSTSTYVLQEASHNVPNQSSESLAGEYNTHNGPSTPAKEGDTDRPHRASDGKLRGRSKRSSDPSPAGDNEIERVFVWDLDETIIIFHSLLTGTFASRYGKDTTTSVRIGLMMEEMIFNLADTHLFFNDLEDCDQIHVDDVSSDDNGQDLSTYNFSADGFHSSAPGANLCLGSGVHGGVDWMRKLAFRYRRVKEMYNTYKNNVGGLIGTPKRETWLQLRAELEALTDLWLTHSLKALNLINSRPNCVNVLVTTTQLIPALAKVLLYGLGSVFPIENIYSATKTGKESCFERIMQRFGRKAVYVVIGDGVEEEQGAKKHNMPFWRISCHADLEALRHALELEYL
Target sequence (Q15475 whole entry, looked up): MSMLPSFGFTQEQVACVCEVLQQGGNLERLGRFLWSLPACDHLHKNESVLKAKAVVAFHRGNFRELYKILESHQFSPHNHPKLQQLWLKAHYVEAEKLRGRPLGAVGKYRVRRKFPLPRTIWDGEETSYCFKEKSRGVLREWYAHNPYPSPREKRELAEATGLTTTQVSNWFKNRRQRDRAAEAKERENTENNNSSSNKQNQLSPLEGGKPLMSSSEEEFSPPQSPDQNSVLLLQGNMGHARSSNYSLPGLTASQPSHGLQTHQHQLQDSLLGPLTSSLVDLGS
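Six1/Eya2 binding was read as AlphaScreen signal after compounds were pinned into GST-Six1 plus His-tagged Eya2 (5X stock 250/500 nM) in pH 8.0 Tris/NaCl/TCEP buffer, beads added, then incubated 1 h, 37 C, dark.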
D2 potentiator: human D2 receptor positive allosteric modulation | potentiation, % (test concentration not listed) | P14416 | actives 0.23% (n = 360,000) | AID 624464 | DiscoveRx D2 beta-arrestin cells, luminescence, 90 min; 100% = 57 uM dopamine signal; active = potentiation of 50% or more; inconclusive = 30% to 50%; inactive = 30% or less;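 further: compound concentration not given in the record; tested on top of an EC20 dose of dopamine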
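D2 cells co-treated with compound plus 50 nM dopamine (EC20) for 90 min at 37 deg C to detect potentiation. Beta-arrestin recruitment was read as enzyme-fragment luminescence after 1 h at ambient temperature. Full response was set by 57 uM dopamine.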
D2 ag: human D2 receptor agonism in beta-arrestin assay; P14416; DiscoveRx PathHunter D2 beta-arrestin, luminescence, 90 min; 100% = 57 uM dopamine signal; activation, % (concentration not given with the values); actives 0.084% (n = 360,000); in the data active = activation above about 40%; inconclusive = about 15% to 40%; inactive = below about 15%; further: compound concentration not given in the record; the text of the record calls up to 30% inactive
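DiscoveRx PathHunter D2 beta-arrestin cells (2,100/well) attached overnight, then compound-stimulated 90 min at 37 C in HBSS/10 mM HEPES/0.1% Tween-20 buffer; beta-galactosidase complementation read by luminescence after 1 h at ambient temperature. Dopamine 57 uM final (EC100) as control.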
CtBP-E1A inh: CtBP/E1A binding inhibition; AlphaScreen GST-E1A/His-CtBP binding, 1536-well; stronger effect = lower value; control for the full effect not named in the record; activity change, % (no concentration beside the values); actives 0.49% (n = 340,000); in the data active means activity change below about -65%; inconclusive means about -30% to -65%; inactive means above about -30%; further: on the % scale 0 is the no-effect control and ±100 the full control effect; compound concentration not given in the record
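AlphaScreen with 125 nM GST-E1A and 125 nM His-CtBP (5X stocks) in Tris pH 8.0, 300 mM NaCl, BSA, Tween 20, TCEP. Compounds preincubated 2 h at 37 deg C, then glutathione donor/nickel acceptor beads added for 1 h at 37 deg C in dark.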
PINK1 expr mod: PINK1 expression modulation | PINK1 immunofluorescence, high-content cytometry, 24 h | Potency, µM (series often up to 76.6 µM), for the others: at the highest dose activation (PINK1 increase), hits mostly activators | actives 0.2% (n = 410,000); active = well fitted activation curve with a large enough effect; inconclusive = small, poorly fitted or top-dose-only effect; inactive = flat fitted curve, though single readings scatter; cell line not stated here;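 further: potency means the concentration at half of the fitted maximal effect; % of control where 0% means no effect; nearly all actives have a fitted effect of over 65% in size; a mitochondrial uncoupler was the plate control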
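PINK1 protein level read as immunofluorescence by microplate cytometer in a fixed, stained stable cell line after 24 h exposure to five compound concentrations, with CCCP as control.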
TRPML1 ag: human mucolipin-1 channel agonism | Q9GZU1 | actives 0.12% (n = 410,000) | activation, % (test concentration not listed) | TRPML1-expressing cells, Ca2+ dye fluorescence, FDSS; host cell line not named in the record; reference of the full effect not given here; in the data active = activation above about 50%; inconclusive = about 30% to 50%; inactive = below about 30%; further: 0% is about no effect; the text of the record puts the active cut at 80%
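Tetracycline-induced TRPML1-DL cells are seeded and incubated overnight before loading with a no-wash Ca2+ dye and quencher. Agonist activity is taken from the 110 s fluorescence read following compound pin-transfer on an FDSS, before EC80 54-4 challenge.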
Active calls of the source: *; u = inconclusive; x = no result given; [ ] = dose if it differs, or a comment.

Values run as follows: Six1-Eya2 inh	D2 potentiator	D2 ag	CtBP-E1A inh	PINK1 expr mod	TRPML1 ag
1	CCC1SC(=Nc2cccc(C)c2)NC1=O (stereo not drawn)
  4	1	0.7	6	1.4%	0.1
2	CC(=O)Nc1ccc(SC[C@H](Cc2ccccc2)N2CCN(CC(C)C)CCC2=O)cc1
  -4	-12	-2.5	-2	2.1%	0.5
3	CCN(CC)c1nc(N)c(C#N)c(CC#N)c1C#N
  7	2	2.1	x	1.1%	0.3
4	O=C(NCc1ccco1)C1CCN(C(=O)c2ccc([N+](=O)[O-])cc2)CC1
  4	-15	-2.5	2	1.9%	0.1
5	CCn1c(CSCc2ccccc2)n[nH]c1=S
  -5	-5	-4.9	10	0.1%	-0.8
6	O=C(O)c1cc(C(=O)C2CCCCC2)c[nH]1
  4	-1	-3.2	5	1.0%	0.3
7	COCC(=O)NC(C)c1nc2ccccc2[nH]1 (stereo not drawn)
  1	-7	-1.5	2	-1.3%	3.8
8	Cc1ccc(NC(=O)COC(=O)C2CC(=O)N(Cc3ccccc3)C2)cc1S(=O)(=O)N(C)C (stereo not drawn)
  6	-2	0.3	10	-1.6%	-0.7
9	O=C(/C=C/c1ccc(-c2ccccc2[N+](=O)[O-])o1)c1ccco1
  -9	-3	1.3	-2	-1.2%	0.2
10	Cc1cc(C(=O)CC#N)c(C)n1-c1ccc(OC(F)F)cc1
  -6	5	-2.2	-8	-0.9%	1.1
11	CN(C)CCNc1cccc2sc3ccc(O)cc3c(=O)c12
  u	-16	-7.9	-67*	-1.2%	0.5
12	Cc1ccc(NC(=O)CSCC(=O)N(C)CC(=O)Nc2ccccc2C(F)(F)F)cc1
  1	-2	0.0	1	-0.5%	0.3
13	OC(CNCc1ccc(Cl)cc1)C(F)(F)F (stereo not drawn)
  1	-10	2.6	x	3.7%	0.2
14	Cc1nnc(SCC(=O)NC2CCCC2)n1C(C)C
  8	2	1.8	6	-0.5%	0.7
15	CCc1ccccc1NC(=O)CSc1nc2[nH]c(=O)cc(O)c2s1
  -2	3	-5.1	-7	0.3%	0.9
16	CC1C2NC(=O)N(Cc3ccccc3)C1(C)Oc1ccccc12 (stereo not drawn)
  -1	0	-7.1	x	-0.1%	1.2
17	O=C(Nc1ccccc1C(=O)Nc1ccccn1)c1ccccc1F
  -5	-4	-2.7	x	0.6%	-0.3
18	COc1cccc(C2C(C(=O)c3ccc(C)o3)=C(O)C(=O)N2CCN2CCOCC2)c1OC (stereo not drawn)
  7	7	-3.3	-1	-0.9%	1.7
19	Cc1c(C(=O)N/N=C/C(C)C)[nH]c2ccc([N+](=O)[O-])cc12
  7	13	-1.0	-5	-1.9%	-0.7
20	C[C@H](NC(=O)C1CCC(CNC(=O)[C@@H]2CCCN2C(=O)OC(C)(C)C)CC1)C(=O)O (stereo partly drawn)
  9	2	-0.9	7	-1.0%	2.1
21	CC(C)[C@H](NC(=O)c1ccccc1)C(=O)OCC(=O)/C=C1/N(C)c2ccccc2C1(C)C
  -10	-5	8.2	x	2.5%	1.9
22	CNC(=O)C1CC(=O)N(c2ccc(F)c(Cl)c2)C1 (stereo not drawn)
  2	-8	-4.1	9	-1.5%	0.0
23	COc1ccc(CNC(=O)c2ccc(CN3CCOCC3)cc2)cc1
  2	-1	-1.2	0	0.0%	-0.3
24	Cc1cccc(NC(=O)c2cc3ccccc3nc2C)c1
  -17	-4	1.0	-17	0.2%	0.3
25	CCOC(=O)C1CCCN(C(=O)c2ccc(CS(=O)(=O)c3ccc(C)cc3)o2)C1 (stereo not drawn)
  0	-6	-0.8	0	-0.3%	-0.1
26	Cc1ccc(NC(=O)CSc2nc3ccccc3c(=O)n2CCCC(=O)NCC2CCCO2)cc1 (stereo not drawn)
  3	0	-1.2	6	9.0%	-1.0
27	O=S(=O)(c1ccc(F)cc1)N1CCN(c2nc(-c3ccc(F)cc3)cs2)CC1
  -1	-14	2.2	-2	-3.4%[38.3 µM]	0.7
28	CC(C)NC(=O)NC(=O)COc1ncnc2sccc12
  2	2	-2.7	0	-3.5%	1.5
29	O=C1C(Cl)=C(NCCCN2CCOCC2)C(=O)N1CCc1ccccc1
  8	-3	1.9	11	u	0.3
30	CCn1cc([N+](=O)[O-])c(C(=O)Nc2nc(-c3ccc(C)cc3)c(C)s2)n1
  1	-17	-1.8	0	-1.7%	-0.1

Two entries picked at random from those above, as already listed:
Values run as follows: Six1-Eya2 inh	D2 potentiator	D2 ag	CtBP-E1A inh	PINK1 expr mod	TRPML1 ag
12	Cc1ccc(NC(=O)CSCC(=O)N(C)CC(=O)Nc2ccccc2C(F)(F)F)cc1
  1	-2	0.0	1	-0.5%	0.3
3	CCN(CC)c1nc(N)c(C#N)c(CC#N)c1C#N
  7	2	2.1	x	1.1%	0.3

Next part:
Values run as follows: Six1-Eya2 inh	D2 potentiator	D2 ag	CtBP-E1A inh	PINK1 expr mod	TRPML1 ag
31	COc1ccccc1C(CNC(=O)CCNC(=O)c1ccccc1Cl)N1CCCC1 (stereo not drawn)
  1	-8	-1.5	4	-2.2%	0.2
32	O=C(NCc1ccccc1Cl)c1ccc(Br)o1
  0	2	-2.5	2	1.3%	-0.4
33	Cc1ccc(C)c(NC(=O)CSc2nc(N)c(NC(=O)c3cccs3)c(=O)[nH]2)c1
  -1	-10	-5.0	1	3.3%	0.7
34	CCCCN1C[C@H](COC(=O)CCC)Oc2cccc(F)c2S1(=O)=O
  8	-4	-1.6	12	-0.9%	-0.7
35	COc1ccc(-n2c(-c3ccc(Br)cc3)n[nH]c2=S)cc1
  -8	-4	-3.1	8	-0.5%	0.6
36	CCOc1cccc(C(=O)NC(=S)Nc2cccnc2)c1
  -2	-23	-4.2	4	-1.6%	1.2
37	O=C(COC(=O)c1cc(S(=O)(=O)N2CCOCC2)ccc1Cl)NCCc1ccccc1
  5	-1	1.4	0	0.0%	1.6
38	Cc1cc(C)cc(OCC(=O)Nc2ccc3c(c2)OCCO3)c1
  6	-11	2.8	-15	0.2%	2.1
39	COc1ccccc1N1C(=O)S/C(=C\c2ccc(C)s2)C1=O
  -1	-16	-2.5	x	u	2.8
40	O=[N+]([O-])CC(=Nc1ccc(Cl)cc1)N/N=C\c1oc(O)c2ccccc12
  -7	-17	0.4	-2	1.4%	-0.4
41	Cc1oc2cc(Br)c(O)c(Br)c2c1C(=O)c1ccccc1
  2	-2	7.0	4	-0.8%	1.8
42	O=C(CCN1C(=O)S/C(=C/c2ccc(F)cc2)C1=O)Nc1ccc(O)c(C(=O)O)c1
  -1	-8	-5.6	x	2.9%	0.5
43	CCNc1nc(Cl)nc(NC2CCCCC2)n1
  1	-2	-5.6	7	-0.9%	-0.5
44	O=C(Nc1cccc(-c2nnc(-c3ccco3)o2)c1)c1ccccc1
  u	5	u	-24	0.3%	-0.2
45	O=C(Cn1c(NCCO)nc2ccccc21)Nc1cccc(S(=O)(=O)N2CCCC2)c1
  1	-17	0.0	-1	0.3%	-0.8
46	COc1ccc(-n2cc(-c3ccc(Br)cc3)[nH]c2=S)cc1
  0	-1	0.7	-24	3.2%	-0.5
47	O=C(c1ccco1)N1CCN(C(=O)c2ccco2)C1=S
  2	-6	-6.0	0	-5.9%	-0.4
48	CCOc1ccc(N2C(=O)CC(N3CCc4ccccc43)C2=O)cc1 (stereo not drawn)
  1	0	-2.9	-4	4.0%[38.3 µM]	-0.6
49	Cc1nn(Cc2ccccc2)c(Cl)c1C(=O)OC(C)C#N (stereo not drawn)
  12	-3	1.5	9	2.1%	2.0
50	CCS(=O)(=O)N1CCN(c2ncnc3sc(C)c(C)c23)CC1
  3	2	2.9	8	-0.3%	0.9
51	CCOc1cccc(N(C(=O)CCC(=O)Nc2cc(C)on2)C(C(=O)NC(C)(C)C)c2ccc(OC)cc2)c1 (stereo not drawn)
  12	0	13	1	4.3%	1.7
52	CCCCCN(C(=O)CCC(=O)OCC(=O)N(CC)C1CCCCC1)c1c(N)n(CCCC)c(=O)[nH]c1=O
  12	-9	-3.5	-14	-2.1%	-0.1
53	COc1ccccc1C(C)NC(=O)CCNC(=O)c1ccc(Cl)cc1 (stereo not drawn)
  5	0	0.2	4	0.5%	-0.5
54	O=C(Nc1cccc(Cl)c1)N1CCN(Cc2ccccc2)CC1
  5	-3	-2.9	-11	0.6%	0.0
55	Cc1[nH]c2ccccc2c1/C=N/NC(=O)c1cccc(F)c1
  -7	-6	-8.8	-8	1.0%	-0.1
56	CCc1cc2ccc(OC)cc2nc1SCC(=O)NNC(=O)c1ccco1
  -1	-3	-3.0	-5	0.4%	-1.1
57	O=[N+]([O-])c1ccc(N=Nc2ccc(O)c3ccccc23)cc1
  u	-1	7.3	-70*	u	0.8
58	Cc1ccc(-c2nnc(N3CCN(C(=O)c4ccco4)CC3)c3ccccc23)cc1
  0	-13	-0.9	-6	0.0%	1.1
59	C[C@@H]1C[C@@H]2O[C@H]2/C=C\C=C\C(=O)Cc2c(Cl)c(O)cc(O)c2C(=O)O1
  -12	2	-5.4	2	3.7%	0.1
60	O=C1Nc2ccc(Cl)cc2C12Nc1ccccc1-c1nnc(SCc3ccccc3F)nc1O2 (stereo not drawn)
  -8	-65	-18	7	3.0%	-0.6
61	O=C(NC(=S)Nc1cccc(Cl)c1Cl)C1CC1
  0	-10	-0.2	4	12%	0.3

Some values from the results shown.
`O=[N+]([O-])c1ccc(N=Nc2ccc(O)c3ccccc23)cc1` @ TRPML1 ag = 0.8
`Cc1cc(C)cc(OCC(=O)Nc2ccc3c(c2)OCCO3)c1` @ TRPML1 ag = 2.1

Whole records as entered above. Order of screens: Six1-Eya2 inh, D2 potentiator, D2 ag, CtBP-E1A inh, PINK1 expr mod, TRPML1 ag
CCc1cc2ccc(OC)cc2nc1SCC(=O)NNC(=O)c1ccco1 across the screens: -1, -3, -3.0, -5, 0.4%, -1.1
CCS(=O)(=O)N1CCN(c2ncnc3sc(C)c(C)c23)CC1 across the screens: 3, 2, 2.9, 8, -0.3%, 0.9
Cc1oc2cc(Br)c(O)c(Br)c2c1C(=O)c1ccccc1 across the screens: 2, -2, 7.0, 4, -0.8%, 1.8
O=C(NC(=S)Nc1cccc(Cl)c1Cl)C1CC1 across the screens: 0, -10, -0.2, 4, 12%, 0.3
C[C@@H]1C[C@@H]2O[C@H]2/C=C\C=C\C(=O)Cc2c(Cl)c(O)cc(O)c2C(=O)O1 across the screens: -12, 2, -5.4, 2, 3.7%, 0.1
